Compound activity deposited in PubChem by Johns Hopkins Ion Channel Center.
KCNQ2 pot: enhances the rat KCNQ2 potassium channel. O88943. CHO-K1 KCNQ2, FluxOR thallium flux fluorescence; hits give high values. B-score at 10 µM. actives 0.54% (n = 310,000). AID 2239;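 active = fluorescence ratio B-score at least 3 SD of library B-scores, with initial fluorescence B-score within 3 SD, cut at about 5.3 in these data; same plate scores as AID 2156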;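 also: B-score of peak minus minimum over baseline fluorescence ratio after K+ and Tl+ stimulus; positive B-score means potentiation of KCNQ2 with more thallium influx and brighter signal; only the inactives scoring about 0 or higher are listed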
Target sequence (O88943 whole entry, looked up): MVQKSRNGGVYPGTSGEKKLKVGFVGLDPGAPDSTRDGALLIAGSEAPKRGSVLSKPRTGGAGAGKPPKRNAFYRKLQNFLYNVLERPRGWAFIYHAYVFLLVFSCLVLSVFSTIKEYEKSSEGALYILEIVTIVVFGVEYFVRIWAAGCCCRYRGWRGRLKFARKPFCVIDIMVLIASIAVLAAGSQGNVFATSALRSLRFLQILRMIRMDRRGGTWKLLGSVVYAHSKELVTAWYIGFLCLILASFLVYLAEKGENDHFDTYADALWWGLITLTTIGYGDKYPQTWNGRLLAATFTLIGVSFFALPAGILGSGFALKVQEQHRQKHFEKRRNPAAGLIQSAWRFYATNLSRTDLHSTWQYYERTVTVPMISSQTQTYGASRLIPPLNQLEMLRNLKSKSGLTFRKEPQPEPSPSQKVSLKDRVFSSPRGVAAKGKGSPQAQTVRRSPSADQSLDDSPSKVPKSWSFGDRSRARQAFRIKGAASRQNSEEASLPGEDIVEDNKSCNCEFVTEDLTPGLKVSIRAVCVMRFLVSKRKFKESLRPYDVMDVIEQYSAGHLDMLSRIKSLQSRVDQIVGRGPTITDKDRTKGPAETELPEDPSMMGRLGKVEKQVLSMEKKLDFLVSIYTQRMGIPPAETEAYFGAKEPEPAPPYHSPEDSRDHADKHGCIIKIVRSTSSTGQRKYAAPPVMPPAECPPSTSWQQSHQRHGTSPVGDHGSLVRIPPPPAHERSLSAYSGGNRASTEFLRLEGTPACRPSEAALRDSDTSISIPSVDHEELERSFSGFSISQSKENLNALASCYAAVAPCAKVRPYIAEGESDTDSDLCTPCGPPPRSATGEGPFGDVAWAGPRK
KCNQ2 pot baseline: also measured in KCNQ2 pot; calls as there; B-score; compound at 10 µM; measured here: initial fluorescence intensity artifact check;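 brightness before thallium and not channel activity; 0 = typical well and far values either way flag optical interference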
Numbers without * were called inactive. Only part of the results is shown. The share of hits here may be higher or lower than overall.

KCNQ2 pot baseline,KCNQ2 pot,Structure
0,0.11,O=C(NNC(=O)c1ccc(Oc2ccc(C3SCCS3)cc2)o1)c1ccc(Cl)cc1
0.68,1.47,CC(=O)c1sc(=S)n(-c2ccc(Cl)cc2)c1C
0,0.56,CC12CCC(C(=O)NCc3ccc4c(c3)OCO4)(OC1=O)C2(C)C (configuration not stated)
1.42,1.4,COc1cccc(NC(=O)c2ccc(NCCCN3CC(C)CC(C)C3)c([N+](=O)[O-])c2)c1 (configuration not stated)
0.18,0.4,CC(C)c1ccc(NC(=O)Cn2ncc3ccccc32)cc1
-2.87,0.28,Cc1cc(C)c2cc(C#N)c(SCC(=O)NCc3ccco3)nc2c1
-0.8,1.25,CC(NC(=O)COC(=O)c1cccs1)c1ccccc1 (configuration not stated)
-0.51,1.96,CC1CN(C(=O)CSc2nnc(NC(=O)NC(C)(C)C)s2)CC(C)O1 (configuration not stated)
-2.87,1.71,CC(=O)Nc1cccc(OCC(=O)Nc2sccc2C(N)=O)c1
0.45,0.01,COc1ccc2cc(CN(CC3CCCO3)C(=S)Nc3ccccc3)c(=O)[nH]c2c1 (configuration not stated)
0,0.01,Cc1ccc(NC(=O)C(=O)NCCCN2CC(C(=O)O)CC2=O)cc1 (configuration not stated)
-3.76,0.5,C=C(C)CC(Nc1ccc(OC)cc1)c1ccco1 (configuration not stated)
0.07,0.03,CCOC(=O)N1CCN(S(=O)(=O)c2ccc(C(=O)NNc3nc4cc(C)cc(C)c4s3)cc2)CC1
-3.57,0.03,O=C(NCc1ccccn1)Nc1ccc(Cl)cc1
-0.02,0.66,CC(C)c1ccc(N2CCN(C(=O)c3ccccc3NC(=O)/C=C\C(=O)O)CC2)cc1

KCNQ2 pot baseline,KCNQ2 pot,Structure
-0.26,0.81,c1ccc(CSc2ccc3nnc(-c4ccccn4)n3n2)cc1
-0.21,0.49,Cc1nc(N)c(C#N)c(-c2ccccc2Cl)c1C
0.04,1.01,Cc1ccc2c(c1)nnn2C1CCN(CC(=O)N2CCN(c3ccc(F)cc3)CC2)CC1
1.44,0.6,O=C(C1CCN(Cc2ccc(F)cc2)CC1)N1CCN(C/C=C/c2ccccc2)CC1
-0.5,1.47,CCOC(=O)N1CCN(C(=O)C2CCN(Cc3cccc(OCc4ccccc4)c3)CC2)CC1
-0.02,3.58,Cc1ccc(-c2nc3ccccc3c(=O)n2O)cc1
2.03,1.64,O=C1COc2cccnc2N1
1.75,0.13,O=C(CN(C(=O)CCC(=O)Nc1nccs1)c1ccccc1F)NCc1ccc2c(c1)OCO2
-2.96,0.36,CCOc1cc(NC(=O)c2ccccc2OC)c(OCC)cc1NC(=O)c1ccccc1
-2.72,2.52,CC(=O)NCCC(=O)Nc1ccc(C)c(F)c1
-0.94,0.39,CCCCC(=O)OCc1cn(-c2ccc(Cl)cc2)nn1
-0.7,0.4,COc1ccc(C(=O)Nc2ccc(S(=O)(=O)Nc3nccc(C)n3)cc2)cc1[N+](=O)[O-]
-1.68,1.13,O=C(Nc1ccccc1Cl)C1CCCN(S(=O)(=O)c2cccc3cccnc23)C1 (configuration not stated)
-0.16,0.94,O=c1[nH]c2ccccc2nc1C(Nc1ccccc1)c1ccccc1 (configuration not stated)
-0.08,0.96,CCCc1ccc(OCCNC(=O)CC)cc1

Record cards, from the list above. Order of screens: KCNQ2 pot baseline, KCNQ2 pot
c1ccc(CSc2ccc3nnc(-c4ccccn4)n3n2)cc1 is entered as -0.26, 0.81
COc1ccc(C(=O)Nc2ccc(S(=O)(=O)Nc3nccc(C)n3)cc2)cc1[N+](=O)[O-] is entered as -0.7, 0.4
CCOc1cc(NC(=O)c2ccccc2OC)c(OCC)cc1NC(=O)c1ccccc1 is entered as -2.96, 0.36
O=C(C1CCN(Cc2ccc(F)cc2)CC1)N1CCN(C/C=C/c2ccccc2)CC1 is entered as 1.44, 0.6
O=c1[nH]c2ccccc2nc1C(Nc1ccccc1)c1ccccc1 (configuration not stated) is entered as -0.16, 0.94

Further entries follow.
KCNQ2 pot baseline,KCNQ2 pot,Structure
-0.22,0.42,COc1cc2c(cc1OC)C(COc1ccc(F)cc1)NCC2 (configuration not stated)
4.35,1.42,Cc1cc(C)cc(NC(=O)N2CCCC2C(=O)Nc2ccc(-n3cnnn3)c(C)c2)c1 (configuration not stated)
1.53,0.56,COc1ccc(N2CCN(CC(=O)Nc3c(C)cc(C)cc3C)CC2)cc1
-0.09,0.36,COC(=O)CCCC(=O)N1CCC(CCC(=O)NC2CC2)CC1
-0.01,0.2,O=C(O)c1cccc(NS(=O)(=O)c2ccc(Cl)c(C(=O)O)c2)c1
-0.49,0.07,COc1ccccc1OCCNC(=O)C1CCCCC1
-1.45,1.93,Cc1cc[n+](CC(=O)c2ccc3c(c2)OCCO3)cc1
-1.87,1.47,COc1ccc(S(=O)(=O)Nc2cc(C(=O)NCCC(C)C)ccc2N2CCOCC2)cc1
-0.09,0.94,Cc1nn(C)c(C(=O)NC(=S)Nc2ccccc2O)c1Cl
-1.54,0.56,CC1CCN(S(=O)(=O)c2cn(CC(=O)N3CC(C)CC(C)C3)c(=O)c3ccccc23)CC1 (configuration not stated)
-0.15,1.62,CC(C)Nc1ncnc2ccc(Br)cc12
-0.13,0.03,NS(=O)(=O)c1ccc(NC(=O)/C=C/c2ccccc2Cl)cc1
0.1,4.84,CC(C)C(C)(C#N)NC(=O)CSc1nc2scc(-c3ccc(F)cc3)c2c(=O)n1Cc1ccccc1 (configuration not stated)
0.38,0.84,COc1ccc(N2CCN(C(=O)CCCCCn3c(=S)[nH]c4cc5c(cc4c3=O)OCO5)CC2)cc1
-0.95,0.73,CCCCNC(=S)NNC(=O)c1csc(C(C)C)c1

KCNQ2 pot baseline,KCNQ2 pot,Structure
0.36,0.79,O=C(O)c1cc(-c2ccncc2)nc2ccc(F)cc12
-0.14,0.06,O=C(O)CN1C(=O)C(=O)N(Cc2c(F)cccc2Cl)C1=O
1.5,0.99,CCCc1c(C(=O)Nc2ccc(N3CCOCC3)cc2)cnn1-c1ccccc1
-0.87,0.07,COc1ccc2nc(SCC(=O)Nc3c(C)cc(C)cc3C)[nH]c2c1
-0.22,1.89,O=CNc1ccc(S(=O)(=O)NCc2ccccc2)cc1
1.19,1.2,CCOc1ccc(NC(=O)CC(Cc2cc(C)cc(C)c2)C(=O)O)cc1 (configuration not stated)
0.34,0.12,CSC(=O)NC12CC3CC(CC(C)(C3)C1)C2
-0.91,0.02,Cc1noc(NS(=O)(=O)c2ccc(NC(=O)CSc3nnc4c(n3)[nH]c3ccccc34)cc2)c1C
-0.78,0.53,c1ccc2c(c1)CCN(c1nc3ccccc3n3cnnc13)C2
1.57,1.6,CCN1CCN(c2ccc(S(=O)(=O)N3CCOCC3)cc2NC(=O)c2ccc(Cl)s2)CC1
-0.05,0.19,Cc1sc(NC(=O)c2ccccc2)c(C(=O)N2CCN(C)CC2)c1C
-1.32,0.45,COc1ccc(-c2nc(CCNS(=O)(=O)c3ccc4c(c3)OCCO4)cs2)cc1
-0.01,1.51,O=C(NCc1ccccc1)Nc1cccn(Cc2ccccc2)c1=O
1.49,0.01,O=C(NCc1ccco1)c1ccc(Cn2c(=O)c3ccccc3n(Cc3cccc(Cl)c3)c2=O)cc1
-0.04,0.45,CC(=O)Nc1ccc(S(=O)(=O)Oc2ccc(N3C(=O)C4CCCCC4C3=O)cc2)cc1 (configuration not stated)

An excerpt from further up:
KCNQ2 pot baseline,KCNQ2 pot,Structure
-0.78,0.53,c1ccc2c(c1)CCN(c1nc3ccccc3n3cnnc13)C2
1.57,1.6,CCN1CCN(c2ccc(S(=O)(=O)N3CCOCC3)cc2NC(=O)c2ccc(Cl)s2)CC1
-0.05,0.19,Cc1sc(NC(=O)c2ccccc2)c(C(=O)N2CCN(C)CC2)c1C
-1.32,0.45,COc1ccc(-c2nc(CCNS(=O)(=O)c3ccc4c(c3)OCCO4)cs2)cc1
-0.01,1.51,O=C(NCc1ccccc1)Nc1cccn(Cc2ccccc2)c1=O
1.49,0.01,O=C(NCc1ccco1)c1ccc(Cn2c(=O)c3ccccc3n(Cc3cccc(Cl)c3)c2=O)cc1
-0.04,0.45,CC(=O)Nc1ccc(S(=O)(=O)Oc2ccc(N3C(=O)C4CCCCC4C3=O)cc2)cc1 (configuration not stated)

New compounds follow.
KCNQ2 pot baseline,KCNQ2 pot,Structure
0.21,0.86,Cc1cc(OCC(=O)N[C@@H](CSCc2ccccc2)C(=O)O)c2c(C)c(C)c(=O)oc2c1
1.22,0.5,CN1C(=S)SC(/[N+]([O-])=C\c2ccc(Cl)cc2)C1(C)C (configuration not stated)
1.99,0.74,CCCCOc1cccc(C(=O)Nc2ccc(NC(=O)c3ccco3)cc2)c1
-2,0.32,CCOC(=O)Cn1c(C)nc2c(C(=O)OCC)sc(C)c2c1=O
-1.11,1.13,CCOC(=O)C1CCCN(S(=O)(=O)c2ccc3c4c2CC(=O)N4CC(C)S3)C1 (configuration not stated)
1.02,1.16,Nc1ncccc1OCc1cccc(C(F)(F)F)c1
-0.36,0.02,C=CCc1cccc2cc(C(=O)N3CCN(c4ccccn4)CC3)c(=O)oc12
-0.16,2.26,O=C(N/N=C/c1ccco1)c1csc2c1CCCC2
0.48,0.36,COc1ccc(S(=O)(=O)n2cnc3ccccc32)cc1OC
-0.03,0.8,CCN(CC)CCNC(=O)C(C(=O)c1ccccc1)n1ccccc1=O (configuration not stated)
-0.86,1.34,CCC1(c2ccccc2)NC(=O)N(CC(=O)NNC(=O)CCN2CCN(c3ccccc3)CC2)C1=O (configuration not stated)
2.72,1.04,Cc1nccn1CCc1n[nH]c(=S)n1Cc1ccccc1
1.24,0.03,CC(C)NC(=O)CSc1nnc(CNC(=O)OC(C)(C)C)n1C
-1.06,1.05,Cc1ccc(C)c(NC(=O)C2C3CCCC2C3c2ccccc2)c1 (configuration not stated)
2.09,1.87,Cc1cccc(NCc2ccccc2O)n1

KCNQ2 pot baseline,KCNQ2 pot,Structure
0,0.3,Cc1c(C(=O)N2CCCc3ccccc32)sc2nc(-c3ccccc3)cn12
0.61,0.3,CC(=O)N1CCOc2ccc(S(=O)(=O)N3CCC(C(=O)Nc4ccccc4F)CC3)cc21
-2.86,2.99,O=CN1CCN(S(=O)(=O)c2ccc(Cl)c(C(=O)O)c2)CC1
-0.49,0.13,CCOc1ccc(CCNC(=O)COC(=O)c2ccc(F)c(S(=O)(=O)N3CCOCC3)c2)cc1OCC
0.78,2.3,CC12CCC(C(=O)N(CSC(=S)N/N=C\c3ccccc3O)C1=O)C2(C)C (configuration not stated)
0.07,0.4,Cc1nc(C(C)NC(=O)CCc2nnc(CCCc3ccccc3)o2)c(C)s1 (configuration not stated)
-0.49,0.09,CN(Cc1ccc2nsnc2c1)Cc1nc(Cc2cccc(F)c2)no1
-1.42,1.34,O=C(NCc1n[nH]c(=S)n1-c1ccc(Br)cc1)c1cccs1
-0.02,0.18,Oc1cccc(/C=N/NC(=S)NCCN2CCOCC2)c1O
-0.08*,13.8*,CCCN(CCC)C(=S)NC(=O)c1ccc(-c2ccccc2)cc1
0.03,0.01,O=C(OCc1cc2ccccc2[nH]c1=O)c1cccnc1
-0.97,1.57,Cc1cc(/C=C(\C#N)C(=O)O)c(C)n1-c1ccc(Br)cc1
-0.02,0.66,COc1ccc(NC2CCCN(C(=O)CCC3=NNC(=O)CC3)C2)cc1 (configuration not stated)
0.61,0.53,CCOC(=O)/C=c1\s/c(=C\c2sccc2C)c(=O)n1CC(=O)NCc1ccc(C)cc1
-1.45,0.77,CC1CCCN(S(=O)(=O)CCNC(=O)c2ccccc2)C1 (configuration not stated)

KCNQ2 pot baseline,KCNQ2 pot,Structure
0.02,0.32,CCn1c(SCC(=O)Nc2cc(C)on2)nnc1-c1ccc(OC)cc1
-0.59,1.04,CNC(=S)/N=C(/Nc1ccccc1)c1ccccc1
-0.24,2.03,Cc1nnc(C)c2c(C)n(N)c(C)c12
-0.01,1.91,CCOCCCNC(=O)c1cc2cc3cc(OC)ccc3nc2o1
1.25,0.51,Cc1nc2c(C(=O)N3CCCC3)cnn2c(C)c1Cc1c(F)cccc1Cl
-0.92,0.85,O=C(CN1C(=O)S/C(=C/c2cccn2-c2ccc(O)cc2)C1=O)N1CCCC1
-1.38,1.5,CC(=O)NCCc1nc2ccccc2n1CCOc1ccc(C)cc1
-0.11,2.64,CC(Oc1ccccc1)C(=O)N=C1SC2CS(=O)(=O)CC2N1CCc1ccccc1 (configuration not stated)
0.74,0.06,COc1ccccc1C(=O)NN(C)C1=NS(=O)(=O)c2ccccc21
0.42,0.33,CC(=O)Nc1ccc(NC(=O)C2CCN(C(=O)NC3CCCCC3)CC2)cc1
-0.47,0.11,CNC(=O)c1cc(Nc2nnc(C)c3ccccc23)ccc1OC
-0.81,0.25,Cc1nc(N2CCN(c3ccccn3)CC2)c2c(C)c(C(=O)N3CCN(c4ccccc4F)CC3)sc2n1
0.56,0.93,Cc1ccc(C(=O)c2sc3nc4c(cc3c2N)CCC4)cc1
-0.38,0.89,Cc1ccsc1C(=O)Nc1ccc2c(c1)OCCO2
0.04,0.36,CCN(Cc1cc2ccccc2[nH]c1=O)C(=O)c1cccnc1

KCNQ2 pot baseline,KCNQ2 pot,Structure
-0.85,0.01,C#CCOCCOCCOCCNc1nc(N2CCN(C(=O)[C@H](CCC(=O)O)n3cc(C(N)CO)nn3)CC2)nc(N2CCN(C(=O)[C@H](Cc3ccc(O)cc3)n3cc(C(N)CC(C)C)nn3)CC2)n1 (some centres not stated)
0.26,1.07,CCOc1ccc(OCC)c(NC(=O)CCNS(=O)(=O)c2cc(Br)cnc2N)c1
-2.17,1.21,O=C(N=C1SC2CS(=O)(=O)CC2N1CCc1ccccc1)C1CCCCC1 (configuration not stated)
-0.51,0.15,COc1ccc(N(CC(=O)Nc2ccccc2C(F)(F)F)C2=NC3CS(=O)(=O)CC3S2)cc1 (configuration not stated)
0.03,1.47,O=C(NCc1nc2ccccc2[nH]1)C1=C[C@@H](C2CC2)C[C@@H](OCc2ccc(CO)cc2)O1
0.54,0.16,CCc1cccc(OCCCn2ccnc2)c1
